D2 agonist: Beta-Arrestin HTS for Positive Allosteric Modulators of the Human D2 Dopamine Receptor: Agonists. hit rate 0.084% among 360,000. DiscoveRx PathHunter D2 beta-arrestin, luminescence, 90 min; 100% = 57 uM dopamine signal. activation, % (concentration not given with the values). D(2) dopamine receptor (Homo sapiens), P14416; in the data active = activation above about 40%; inconclusive = about 15% to 40%; inactive = below about 15%; note: compound concentration not given in the record; the text of the record calls up to 30% inactive
Target sequence (P14416 whole entry, looked up): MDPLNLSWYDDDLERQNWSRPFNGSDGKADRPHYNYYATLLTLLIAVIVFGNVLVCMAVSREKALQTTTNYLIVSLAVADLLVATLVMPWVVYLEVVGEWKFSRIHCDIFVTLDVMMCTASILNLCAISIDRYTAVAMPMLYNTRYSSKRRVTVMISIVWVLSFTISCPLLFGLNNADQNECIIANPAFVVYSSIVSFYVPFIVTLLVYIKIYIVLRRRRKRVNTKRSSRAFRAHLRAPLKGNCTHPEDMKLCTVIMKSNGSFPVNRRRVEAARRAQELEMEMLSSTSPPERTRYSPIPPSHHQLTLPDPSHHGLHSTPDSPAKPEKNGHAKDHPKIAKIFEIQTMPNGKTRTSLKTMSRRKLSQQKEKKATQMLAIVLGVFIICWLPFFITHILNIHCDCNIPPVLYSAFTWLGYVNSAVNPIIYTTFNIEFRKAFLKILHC
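Agonist mode: compounds alone added to overnight-plated D2 PathHunter cells for 90 min at 37 C, with 57 uM final dopamine (EC100) defining full response. Beta-arrestin recruitment detected by chemiluminescent reagent, read after 1 h at ambient temperature.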
TRPML1 agonist: qHTS for Agonists of the Human Mucolipin Transient Receptor Potential 1 (TRPML1) | Mucolipin-1 (Homo sapiens), Q9GZU1 | TRPML1-expressing cells, Ca2+ dye fluorescence, FDSS; host cell line not named in the record; reference of the full effect not given here | activation, % (test concentration not listed) | hit rate 0.12% among 410,000 | AID 624414, 2012; in the data active = activation above about 50%; inconclusive = about 30% to 50%; inactive = below about 30%; note: 0% is about no effect; the text of the record puts the active cut at 80%
Target sequence (Q9GZU1 whole entry, looked up): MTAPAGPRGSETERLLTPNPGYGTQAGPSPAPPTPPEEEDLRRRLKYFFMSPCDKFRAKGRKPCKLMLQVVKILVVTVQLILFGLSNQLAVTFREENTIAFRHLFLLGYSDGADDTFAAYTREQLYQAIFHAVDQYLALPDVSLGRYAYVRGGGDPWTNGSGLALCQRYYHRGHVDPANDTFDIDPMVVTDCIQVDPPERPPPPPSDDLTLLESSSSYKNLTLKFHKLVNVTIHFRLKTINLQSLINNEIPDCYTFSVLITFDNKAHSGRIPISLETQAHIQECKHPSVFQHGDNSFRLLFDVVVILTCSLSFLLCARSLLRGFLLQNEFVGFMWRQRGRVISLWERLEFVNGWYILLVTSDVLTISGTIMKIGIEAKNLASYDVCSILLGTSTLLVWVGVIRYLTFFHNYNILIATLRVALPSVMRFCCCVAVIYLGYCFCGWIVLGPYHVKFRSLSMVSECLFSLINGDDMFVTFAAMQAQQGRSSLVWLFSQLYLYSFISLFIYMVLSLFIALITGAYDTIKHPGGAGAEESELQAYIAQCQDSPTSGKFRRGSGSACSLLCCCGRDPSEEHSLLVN
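Tet-induced TRPML1-DL cells, 1,500 per well, cultured overnight, were loaded with a no-wash Ca2+ dye for 45–90 min. Calcium fluorescence was recorded on the FDSS for 110 s after compound addition, before the EC80 agonist (4 uM 54-4) was added.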
Six1-Eya2 inh: qHTS Assay for Inhibitors of the Six1/Eya2 Interaction; Homeobox protein SIX1 (Homo sapiens) + Protein phosphatase EYA2 (Homo sapiens), …; AlphaScreen GST-Six1/His-Eya2 binding, biochemical; stronger effect = lower value; control for the full effect not named in the record; activity change, % (test concentration not listed); hit rate 0.56% among 360,000; AID 651725, 2012; in the data active = activity change below about -65%; inconclusive = about -30% to -65%; inactive = above about -30%; note: % is set by controls: 0 for no effect and ±100 for the full control effect; compound concentration not given in the record
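AlphaScreen with GST-Six1 and His-Eya2 (5X mix: 250 nM and 500 nM), glutathione donor and nickel acceptor beads; buffer 50 mM Tris pH 8.0, 300 mM NaCl, 1 mM TCEP; 1 h at 37 C in the dark.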
PINK1 modulator: A Quantitative High throughput Screen to Identify Chemical Modulators of PINK1 Expression | PINK1 immunofluorescence, high-content cytometry, 24 h | Potency, µM (top dose mostly 76.6 µM), inactives show top-dose activation (PINK1 increase), usual class: activators | hit rate 0.2% among 410,000 | AID 624263, 2012; active = well fitted activation curve with a large enough effect; inconclusive = small, poorly fitted or top-dose-only effect; inactive = flat fitted curve, though single readings scatter; cell line not stated here;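 note: potency is the fitted concentration of half-maximal effect; % of control where 0% means no effect; nearly all actives have a fitted effect of over 65% in size; a mitochondrial uncoupler was the plate control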
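Readout is PINK1 immunofluorescence, quantified alongside mitochondrial, cell and nuclear markers by laser-scanning microplate cytometry. Cells from a stable line were exposed to compound titrations (5 concentrations) for 24 hours, with CCCP controls.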
CtBP-E1A blk: qHTS Assay for Inhibitors of the CtBP/E1A Interaction. CtBP / adenovirus E1A interaction (AlphaScreen). AlphaScreen GST-E1A/His-CtBP binding, 1536-well; stronger effect = lower value; control for the full effect not named in the record. activity change, % (no concentration beside the values). hit rate 0.49% among 340,000. AID 651724, 2012; in the data active means activity change below about -65%; inconclusive means about -30% to -65%; inactive means above about -30%; note: % is set by controls: 0 for no effect and ±100 for the full control effect; compound concentration not given in the record
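Homogeneous bead-based format: GST-tagged E1A captured on glutathione donor beads, His-tagged CtBP on nickel acceptor beads; compounds precede bead addition by 2 h at 37 °C.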
TRPML1 blocker: qHTS for Inhibitors of the Human Mucolipin Transient Receptor Potential 1 (TRPML1); Mucolipin-1 (Homo sapiens), Q9GZU1; activity change, negative = inhibition, % (concentration not given with the values); TRPML1-inducible cells, Ca2+ dye fluorescence, FDSS; stronger effect = lower value; inhibition of EC80 agonist-evoked calcium signal; hit rate 0.02% among 390,000; AID 624415, 2012; in the data active means activity change below about -50%; inconclusive means about -30% to -50%; inactive means above about -30%;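 note: stimulus is agonist 54-4 at its EC80 concentration; % is set by controls: 0 for no effect and ±100 for the full control effect; compound concentration not given in the record; the text of the record puts the active cut at -80%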
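TRPML1-DL cells, Tet-induced overnight (~16 h, 37 °C) at 1,500 cells/well, were loaded with Ca8 no-wash dye plus quencher for 45-90 min at room temperature. Compounds were pinned during FDSS kinetic reading; agonist 54-4 at EC80 (4 uM final) then added.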
* hit, by the source's call; ? = inconclusive; . = not tested or not shown; [ ] = remark or other dose.

Values run as follows: PINK1 modulator | TRPML1 agonist | Six1-Eya2 inh | CtBP-E1A blk | D2 agonist | TRPML1 blocker
1: Cc1c(C(=O)N2CCC(C)(C(=O)NS(=O)(=O)C3CC3)C2)oc2ccccc12 (stereo unspecified)
 : 1.4% | 0.0 | 3 | 5 | -7.7 | .
2: COc1ccccc1C1=CC(=O)CCC1
 : 1.1% | -0.5 | 1 | 3 | 5.8 | -16
3: CCCc1cc(=O)oc2c(C)c(OCc3nn[nH]n3)ccc12
 : 0.5% | 1.4 | -7 | -6 | -0.7 | 16
4: CCCCNC(=O)c1cc(-c2ccc(OC)c(OC)c2)on1
 : 1.3% | -0.2 | 8 | 8 | -2.2 | -8
5: CCOC(=O)CN1C(=O)C(=O)N(Cc2cccc(C)c2)C1=O
 : -0.8% | -0.1 | 5 | . | -1.4 | 40
6: O=C(NCCc1ccccc1)c1cccc2c1C(=O)c1ccc(N3CCOCC3)cc1S2(=O)=O
 : 18% | 27 | 5 | 6 | -2.8 | -2
7: Cc1ccc(-c2nc(C(=O)NCCCN3CCOCC3)cc3c2[nH]c2ccccc23)cc1
 : 3.0% | . | -7 | -5 | -3.5 | .
8: CCN(CC)C(=O)Oc1ccc2c(=O)c(-c3ccc(OC)cc3)coc2c1
 : -4.9%[38.3 µM] | 2.5 | 4 | 5 | 2.4 | 32
9: Cc1nn(CC(=O)O)c(=O)c2cc3cc(F)ccc3n12
 : 2.1% | -0.6 | . | . | . | 0
10: CCOC(=O)CN1C(=O)S/C(=C/c2ccc(C)o2)C1=O
 : 0.3% | -0.5 | -7 | 1 | 8.7 | -12
11: O=C(COC(=O)CNS(=O)(=O)c1cccc(F)c1)NCCc1ccccc1
 : 1.6% | -0.6 | -6 | 8 | -1.9 | 0
12: Cc1cc(NC(=O)c2cccc(Cl)c2)n[nH]1
 : -0.3% | -0.7 | 0 | 5 | -0.4 | -1
13: Cc1ccc(NC2CCCN(C(=O)c3ccnc(Cl)c3)C2)cc1C (stereo unspecified)
 : 0.5% | -1.0 | -6 | -2 | -7.0 | -5
14: CN(C)S(=O)(=O)c1ccc(NC(=O)COC(=O)CC2CC3CCC2C3)cc1 (stereo unspecified)
 : 0.0% | 0.9 | -2 | 9 | 2.0 | -25
15: CNC(=S)N(CCCO)Cc1cc2cc3c(cc2[nH]c1=O)OCO3
 : -0.8% | 2.7 | -15 | -12 | 6.8 | -8

Only CtBP-E1A blk and D2 agonist, for some of the entries so far:
item | structure | CtBP-E1A blk | D2 agonist
11 | O=C(COC(=O)CNS(=O)(=O)c1cccc(F)c1)NCCc1ccccc1 | 8 | -1.9
4 | CCCCNC(=O)c1cc(-c2ccc(OC)c(OC)c2)on1 | 8 | -2.2
12 | Cc1cc(NC(=O)c2cccc(Cl)c2)n[nH]1 | 5 | -0.4

The list goes on:
Values run as follows: PINK1 modulator | TRPML1 agonist | Six1-Eya2 inh | CtBP-E1A blk | D2 agonist | TRPML1 blocker
16: COCCNC(=O)COC(=O)CSCc1nc2ccccc2s1
 : -0.2%[38.3 µM] | 0.1 | 8 | -2 | -2.6 | 39
17: CCOc1ccccc1NC(=O)CSc1nnc(Cc2cccn2C)n1-c1ccc(F)cc1
 : 1.7% | 0.0 | -10 | -5 | -3.0 | 11
18: Cn1cc(Cl)c(C(=O)Nc2nc3ccccc3s2)n1
 : . | 0.9 | 2 | 9 | -1.0 | 0
19: CN(C1CCCCC1)S(=O)(=O)c1ccc(SCC(=O)C(C)(C)C)nc1
 : 8.4% | -0.7 | 23 | . | 0.3 | 4
20: CCOC(=O)c1c(C)[nH]c(N=Nc2cccc(OC)c2)c1C
 : 8.0% | -0.3 | -4 | 0 | 5.6 | -16
21: Cc1cc(C)c[n+](-c2[nH]c(=O)sc2/C=N/N=C(\N)[S-])c1
 : 2.4% | 0.4 | -1 | . | -3.6 | -9
22: CCc1ccc(C(=O)Nc2cc(C)on2)o1
 : -1.2% | 0.0 | -1 | 1 | -2.8 | -18
23: N#CC(C#N)=c1ccc2c(c1)NC1(CCCCC1)N=2
 : 3.6% | -0.8 | ? | ? | -6.4 | -8
24: Cc1c(CNC2CCCC(C)C2C)c(C(=O)O)c(C)n1Cc1ccccc1 (stereo unspecified)
 : 0.1% | 0.1 | 1 | 9 | -3.3 | -1
25: COc1ccc(/C=N\NC(=O)c2ccccc2Cl)cc1COc1c(F)c(F)c(F)c(F)c1F
 : 3.2% | -0.7 | -12 | 2 | -3.1 | -10
26: CCN=C1SC(CC(=O)Nc2ccc(N3CCOCC3)cc2)C(=O)N1CC (stereo unspecified)
 : 2.0% | -0.8 | -1 | -2 | -2.5 | 4
27: O=C(Cc1ccc(S(=O)(=O)N2CCOCC2)s1)N1CCN(S(=O)(=O)c2ccccc2[N+](=O)[O-])CC1
 : -1.1% | 0.1 | -3 | -1 | 5.3 | 19
28: CC(NC(=O)Cc1cccs1)c1ccc2c(c1)OCO2 (stereo unspecified)
 : -1.7%[38.3 µM] | 0.8 | 0 | 3 | -0.6 | -7
29: CCOc1ccccc1N(C)C(=O)Cn1cnc2sc(C)c(S(=O)(=O)N3CCC(C)CC3)c2c1=O
 : 1.7% | 0.1 | . | . | . | 4
30: CCCS(=O)(=O)N1CCCC(c2nc(-c3cccc(OC)c3)no2)C1 (stereo unspecified)
 : -3.1%[38.3 µM] | 0.6 | -1 | -10 | -2.5 | 44
31: COC(=O)c1cc(S(=O)(=O)N2CCN(c3ccccc3)CC2)c[nH]1
 : 2.3% | -0.3 | 0 | 3 | 0.1 | 29
32: NC(=O)c1c(NC(=O)CN2C(=O)NC(Cc3ccccc3)C2=O)sc2c1CCC2 (stereo unspecified)
 : -0.4% | -0.6 | 0 | . | -3.8 | 27
33: CCOc1ccc(-n2c(SCC(=O)N3CCc4ccccc43)nnc2-c2c[nH]c3ccccc23)cc1
 : 1.9% | 0.3 | 0 | -11 | -5.7 | -13
34: O=C(Nc1ccc(F)cc1)c1ccc(C(=O)N2CCOCC2)cc1
 : -1.5% | -0.5 | -5 | 3 | 2.0 | -2
35: COc1ccc(CNC(=O)CN(C(=O)CCC(=O)Nc2ccccn2)c2cc(C)ccc2C)cc1
 : 0.0% | 0.3 | 0 | 2 | -3.1 | -12
36: NC(=O)CC(c1ccccc1)c1ccc2c(c1)OCO2 (stereo unspecified)
 : -1.5% | -1.1 | 5 | 0 | 0.3 | 14
37: COc1ccc(/C=C/C(=O)Nc2ccc(C)cc2)cc1S(=O)(=O)N1CCOCC1
 : 1.6% | 0.1 | -3 | ? | -0.3 | -5
38: CCCCN(C)CCNC(=O)c1cc(=O)[nH]c2ccc(S(=O)(=O)N3CCCCCC3)cc12
 : -1.0% | -0.7 | . | . | . | 6
39: CCCc1nc([N+](=O)[O-])c(S(=O)(=O)c2ccccc2)n1CC(C)C
 : 3.8% | 0.5 | 7 | -17 | -0.6 | -11
40: O=C(O)C(Cc1c[nH]c2ccccc12)NS(=O)(=O)c1cccc(Cl)c1Cl (stereo unspecified)
 : 0.2% | 0.1 | 8 | . | -2.6 | 33
41: COc1ccc(Oc2c(Cl)cnn(-c3ccc(Cl)c(Cl)c3)c2=O)cc1
 : -3.8% | 1.0 | 5 | 29 | -2.4 | 46
42: COc1ccc(-c2nc(-c3ccc(NC(=O)c4ccncc4)cc3)no2)cc1OC
 : 1.6% | -0.3 | -4 | 0 | -4.7 | -1
43: Cc1ccnc2nc(C(=O)OCC(=O)NC3CCC(C)CC3)nn12 (stereo unspecified)
 : -1.6% | 1.2 | 7 | -4 | -0.6 | -8
44: CCOC(=O)[C@@H]1[C@H]2COc3ccccc3[C@@H]2N2C(=O)N(c3ccc(F)cc3)C(=O)[C@@]12C
 : 0.2% | -0.9 | 0 | 3 | -2.6 | 9
45: COc1ccc(-n2c(=O)c3c(c4cc(OC)ccc4n3C)n(CCC(C)C)c2=O)cc1
 : 0.1% | 0.0 | . | . | . | 1

Arranged by molecular weight (lowest first): 3 of the compounds above
Values run as follows: PINK1 modulator | TRPML1 agonist | Six1-Eya2 inh | CtBP-E1A blk | D2 agonist | TRPML1 blocker
21: Cc1cc(C)c[n+](-c2[nH]c(=O)sc2/C=N/N=C(\N)[S-])c1
 : 2.4% | 0.4 | -1 | . | -3.6 | -9
15: CNC(=S)N(CCCO)Cc1cc2cc3c(cc2[nH]c1=O)OCO3
 : -0.8% | 2.7 | -15 | -12 | 6.8 | -8
37: COc1ccc(/C=C/C(=O)Nc2ccc(C)cc2)cc1S(=O)(=O)N1CCOCC1
 : 1.6% | 0.1 | -3 | ? | -0.3 | -5

Next records follow:
Values run as follows: PINK1 modulator | TRPML1 agonist | Six1-Eya2 inh | CtBP-E1A blk | D2 agonist | TRPML1 blocker
46: Cc1ccc(CCNC(=O)C2CCN(S(=O)(=O)c3c(C)nn(C)c3C)CC2)cc1
 : -0.3% | 0.0 | 5 | 4 | -1.4 | -6
47: Cc1cc(C)nc(N/N=C/c2ccccc2OCc2ccc([N+](=O)[O-])cc2)n1
 : 13% | -0.7 | -2 | 3 | 1.6 | -6
48: CCOC(=O)N1CCN(C(=S)NC(=O)c2cc(Br)ccc2Cl)CC1
 : 1.7% | 1.5 | 3 | -2 | 0.8 | -3
49: Cc1cccc(-n2cnc3cc(C(=O)NCCN4CCOCC4)ccc32)c1
 : 3.6% | 0.0 | -3 | 10 | 0.3 | 7
50: O=C(Cn1nc(Cl)nc1Cl)c1ccccc1
 : 0.3% | 0.5 | 16 | 10 | 0.7 | 28
51: Cc1ccc(C(C)C)c(OCC(=O)Nc2cc(-c3nc4ccccc4[nH]3)ccc2C)c1
 : 4.4% | 0.5 | . | . | . | -10
52: COC(=O)C1=C(C)NC2=C(C(=O)CCC2)C1c1coc2ccccc2c1=O (stereo unspecified)
 : 1.0% | -1.4 | -2 | -2 | -3.9 | 4
53: CCCCC(=O)N(Cc1ccc2c(c1)OCO2)Cc1nc2ccccc2c(=O)[nH]1
 : 0.3% | 2.0 | -1 | -3 | 1.1 | 9
54: O=C(NC1CC(=O)N(c2ccc(F)cc2)C1)C(=O)c1c[nH]c2ccccc12 (stereo unspecified)
 : 8.3% | -0.2 | 0 | 2 | -2.7 | -5
55: CCC1(CC)C(=O)NC(=O)NC1=S
 : 1.7% | 0.9 | 1 | 13 | -0.9 | 12
56: Cn1nnnc1SCC1=C(C(=O)O)N2C(=O)C(NC(=O)Cn3nc(C(F)F)cc3C3CC3)C2SC1 (stereo unspecified)
 : 0.9% | -0.3 | -9 | 3 | -5.3 | -3
57: COc1cccc(C(c2c(N)n(C)c(=O)n(C)c2=O)C(C)[N+](=O)[O-])c1 (stereo unspecified)
 : 0.2% | -0.3 | -1 | . | -3.0 | 9
